Screening data as filed in PubChem.
Polio RdRp inh: inhibitors of poliovirus RNA polymerase binding and polymerization | hit rate 0.66% among 150,000 | AID 588519 | poliovirus polymerase elongation, fluorescence polarization; stronger effect = lower value | % elongation, % (compound at 16.7 µg/mL) | P03300; in the data active means % elongation below about 90%; further: some results filed as inactive read as strong as hits
MbtI inh: blocks the Mycobacterium tuberculosis siderophore enzyme MbtI. P9WFX0. purified MbtI enzyme, fluorescence intensity read-out. inhibition, %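 (about 17 µg/mL by stock and volumes)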. hit rate 0.89% among 100,000. AID 493033;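 active means above 50% in both replicates, above 80% if mildly self-fluorescent; inactive means the rest, strongly fluorescent compounds included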;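 further: 0% = mean of negative and 100% = mean of positive controls; one replicate is shown; some compounds called inactive have numbers as strong as hits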
Target sequence (P9WFX0 whole entry, looked up): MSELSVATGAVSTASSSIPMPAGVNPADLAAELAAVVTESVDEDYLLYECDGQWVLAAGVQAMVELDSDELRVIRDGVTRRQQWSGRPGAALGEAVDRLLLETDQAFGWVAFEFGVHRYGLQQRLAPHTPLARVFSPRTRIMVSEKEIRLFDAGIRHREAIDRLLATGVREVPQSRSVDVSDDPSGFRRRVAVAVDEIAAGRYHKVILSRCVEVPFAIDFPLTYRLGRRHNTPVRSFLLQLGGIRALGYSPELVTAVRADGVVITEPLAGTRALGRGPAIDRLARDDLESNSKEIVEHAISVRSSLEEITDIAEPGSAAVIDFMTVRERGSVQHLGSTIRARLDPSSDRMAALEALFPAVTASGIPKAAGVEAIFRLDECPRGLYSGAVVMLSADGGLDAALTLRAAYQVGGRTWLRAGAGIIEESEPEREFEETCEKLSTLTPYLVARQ
MenB inh: blocks the Mycobacterium tuberculosis MenB enzyme; P9WNP5; MenB enzyme assay, absorbance read-out; some hits fall short of the stated cut; inhibition, %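 (about 12 µg/mL by stock and volumes)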; hit rate 0.43% among 100,000; AID 540299;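 active means mean of two replicates above 30%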;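 further: 0% = no compound and 100% = wells with inactive enzyme; the first replicate is given; strong numbers were not always called active; inactives centre near -10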
Target sequence (P9WNP5 whole entry, looked up): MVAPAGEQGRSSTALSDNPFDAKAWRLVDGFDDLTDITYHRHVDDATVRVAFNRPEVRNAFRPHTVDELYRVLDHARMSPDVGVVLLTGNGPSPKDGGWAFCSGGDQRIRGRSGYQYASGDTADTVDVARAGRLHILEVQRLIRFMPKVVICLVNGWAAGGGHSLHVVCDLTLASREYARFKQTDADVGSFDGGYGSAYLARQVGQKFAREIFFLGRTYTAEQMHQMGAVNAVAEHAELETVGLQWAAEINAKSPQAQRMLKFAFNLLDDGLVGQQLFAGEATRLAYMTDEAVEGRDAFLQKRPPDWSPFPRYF
Polio RdRp inh intensity: also measured in Polio RdRp inh; calls as there; % elongation; measured here: total intensity read-out; formula for this scale not given here;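 total fluorescence in place of polarization; lower means less elongation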
* = called active by the depositor; nt = not tested or not shown; & = joins results of further samples.

Compound	Polio RdRp inh	Polio RdRp inh intensity	MbtI inh	MenB inh
CCOC(=O)c1oc2ccccc2c1COC(=O)c1ccccn1	109	140	26	-39
O=C1CC(N2CCOCC2)C(=O)N1C1CCCC1 (configuration not stated)	101	105	-8	7
COc1ccc(CSc2nc(C)cc(=O)[nH]2)cc1Br	100	102	-13	-6
Cc1cc2nc(Nc3ncc4c(n3)CC(c3ccco3)CC4=O)nc(C)c2cc1C (configuration not stated)	102	103	7	17
CC1CCCN(C(=O)c2ccc(Cl)c(S(=O)(=O)N3CCCCCC3)c2)C1 (configuration not stated)	102	103	-1	nt
C/C(=N\NC(=S)NC1CCCCC1)c1ccc(O)cc1	92	84	90*	-5
Cn1c(=S)[nH]c2sc3c(c2c1=O)CCC(C(C)(C)C)C3 (configuration not stated)	111	106	nt	-26
O=c1oc2ccccc2cc1C1=NC(=S)NC(c2ccc3c(c2)OCO3)C1 (configuration not stated)	106	123	nt	-17
Cc1ccc(-c2nnc(SCC(=O)c3ccc(C)cc3C)o2)cc1	107	107	-9	-6
N#CCOC(=O)c1sc2ccccc2c1Cl	103	108	7	-13
O=C(NCc1ccccc1)NC1(C(=O)O)CCCCC1	103	102	-16	-14
CCOC(=O)N1CCN(C(=O)Cn2nc(CC)n3c(cc4sc(C)cc43)c2=O)CC1	102	103	-2	13
CCn1ccc(C(=O)Nc2cc(Cl)ccc2Cl)n1	100	101	3	6
COc1ccc2nc(SCC(=O)NCC(F)(F)F)[nH]c2c1	105	103	5	-2
O=C(Nc1ccc(NC(=O)c2cccs2)cc1)c1cccs1	99	103	5	-75
COc1ccc(CNC(=O)c2cccc(S(=O)(=O)N3CCN(C)CC3)c2)cc1	102	107	-4	-9
CC1(C)CC2(C)OC(=O)C(c3ccccc3)N2C(=S)N1 (configuration not stated)	102	106	-3	-28
O=c1oc2ccccc2c(Nc2ccccc2)c1CN1CCCCC1	103	108	1	-7
CSc1nnc(C(C)(C)C)c(=O)n1/N=C/c1ccccc1	95	101	7	-19
Cc1cc(Br)ccc1OCCCN1C(=O)CCN1c1ccccc1	101	100	3	-25

New compounds follow
Compound	Polio RdRp inh	Polio RdRp inh intensity	MbtI inh	MenB inh
Cn1cnc2ccccc21	100	106	7	7
O=c1ccn(C2OC(CO)C(O)C2O)c(=S)[nH]1 (configuration not stated)	100	106	nt	-17
O=C(O)c1ccc(CN=C2NS(=O)(=O)c3ccccc32)cc1	101	99	6	6
COc1ccc(NC(=O)c2cncc(NS(=O)(=O)c3ccc(C)cc3)c2)cc1OC	102	107	-2	9
Cc1cccc(N(CC(N)=O)C2SC(=O)N(c3ccccc3)C2=O)c1 (configuration not stated)	102	100	6	-1
COc1ccc2c(c1)c(CC(=O)OCC(=O)O)c(C)n2C(=O)c1ccc(Cl)cc1	100&99	101&102	-15&-7	-6&9
Cc1cc(C)n2c(NC(C)C)c(-c3ccc(C)o3)nc2n1	102	107	34	-8
CCOC(=O)Cc1c(O)c2ccccc2[nH]c1=O	100	103	-55	-8
CCc1cccc(C(C)C)c1NC(=O)Nc1ccccc1	103	101	-6	-15
CCOC(=O)N1CCN(c2cc3cc(OC)ccc3oc2=O)CC1	101	101	60	-15
CCC1C(=O)NN=C1C (configuration not stated)	107	99	-5	-38
Cc1cc(C(=O)COc2ncnc3ccccc23)c(C)n1C	106	104	4	8
O=C(Cn1c(=O)cnc2ccccc21)NC1CCCc2ccccc21 (configuration not stated)	119	114	17	-19
CCN(CCC#N)C(=S)Nc1cc(C(F)(F)F)cc(C(F)(F)F)c1	108	112	-10	7
CC(C)Cn1c(=O)c2sccc2n2c(CCCC(=O)O)nnc12	101	102	4	-3
COc1ccc(CC(=O)N(C)C)cc1	104	109	nt	5
Cc1ccc(NC(C)C(=O)N/N=C/c2ccc(N(C)C)cc2)cc1 (configuration not stated)	102	101	-3	-12
CC(C)(C)Nc1nc(OCC#N)nc(N2CCOCC2)n1	104	104	4	27
Nc1cc(=O)[nH]c(SCc2ccccc2CSc2nc(N)cc(=O)[nH]2)n1	101	98	17	-6
Cc1ccc2nc(NCCCN3CCOCC3)c3nncn3c2c1	103	102	16	-6

Part of the list above, with each value named.
CC1CCCN(C(=O)c2ccc(Cl)c(S(=O)(=O)N3CCCCCC3)c2)C1 (configuration not stated)
- Polio RdRp inh = 102
- Polio RdRp inh intensity = 103
- MbtI inh = -1
- MenB inh = nt

C/C(=N\NC(=S)NC1CCCCC1)c1ccc(O)cc1
- Polio RdRp inh = 92
- Polio RdRp inh intensity = 84
- MbtI inh = 90*
- MenB inh = -5

Cn1c(=S)[nH]c2sc3c(c2c1=O)CCC(C(C)(C)C)C3 (configuration not stated)
- Polio RdRp inh = 111
- Polio RdRp inh intensity = 106
- MbtI inh = nt
- MenB inh = -26

(list continues)
Compound	Polio RdRp inh	Polio RdRp inh intensity	MbtI inh	MenB inh
CCC(C)NC(=O)CSc1nc2ccsc2c(=O)n1NC(=O)c1ccccc1 (configuration not stated)	101	96	-2	-10
CC1(C)CC2CC(C)(CN2Cc2cccnc2)C1 (configuration not stated)	100	100	12	-10
COC(=O)c1ccc(Cl)c(-c2ccc(/C=N/n3cnnc3)o2)c1	103	111	16	-13
CCCNS(=O)(=O)c1ccc2[nH]c(=O)[nH]c2c1	102	104	10	8
O=C(CN1C2=NCCCN2c2ccccc21)c1ccco1	102	105	1	-18
COC(=O)C1=C(C)NC(=O)/C1=C\c1cccc2ccccc12	102	97	3	-67
COC(=O)C1=C(N)OC2=C(C(=O)CCC2)C1c1ccc(OCc2ccccc2F)cc1 (configuration not stated)	103	109	-14	-5
CCOC(=O)c1cc(-c2ccc(OC)c(S(=O)(=O)N3CCc4ccccc43)c2)on1	102	113	-9	-2
CC(C)(C)C1=CC(C(C#N)C#N)c2ccccc2O1 (configuration not stated)	100	105	-15	nt
Cc1cccc(C)c1NC(=O)C1CCN(S(=O)(=O)c2ccccc2)CC1	100	102	8	1
O=C(Cc1noc2ccccc12)N1CCN(c2ccccc2)CC1	102	100	-22	2
COc1ccc(NC(C)=O)cc1NC(=O)c1c(-n2cccc2)sc(C)c1C	105	102	5	-23
O=C(O)C1CCCCCN1 (configuration not stated)	102	105	-15	-19
O=C(Nc1ccccc1)N1CCN(C(=O)C2CCCO2)CC1 (configuration not stated)	101	101	-10	-6
O=C1C2CCN(CC2)C12CC2c1ccc(C(F)(F)F)cc1 (configuration not stated)	102	103	10	-17
CN(c1ccccc1C(=O)O)S(=O)(=O)c1ccc2[nH]c(=O)[nH]c2c1	99	105	-5	-7
CN(C)NC(=S)NCc1ccc(F)cc1	107	111	-10	3
CCCS(=O)(=O)Nc1ccccc1C(=O)NCc1ccccc1	105	97	103	-25
Cn1c(=O)oc2cc(S(=O)(=O)N3CCc4ccccc43)ccc21	100	104	-2	-18
CCOC(=O)c1sc(NC(=O)CSC2=NN3CCCC(=O)N=C3S2)c(C(=O)OCC)c1C	102	102	-5	-23

Additional results
Compound	Polio RdRp inh	Polio RdRp inh intensity	MbtI inh	MenB inh
CCN(CC)C(=O)c1ccc(CS(=O)(=O)c2ccccc2C)o1	99	103	15	3
CC1(C)Cc2c(cnn2-c2ccc(F)cc2)-c2nc3ccccc3nc21	106	109	nt	1
CC(C)CCCNc1nc(N2CCOCC2)nc(N2CCOCC2)n1	101	102	13	5
O=S(=O)(Cc1ccccc1)NC(c1ccccc1)c1nnc(-c2ccccc2)o1 (configuration not stated)	100	102	-24	-12
CCN(CC)c1ccc(Nc2nc(-c3cccs3)cs2)cc1	103	101	13	-22
O=C(O)CSc1n[nH]c(-c2cccs2)n1	102	99	-131	20
CCOC(=O)c1c(NC(=O)c2onc(C)c2Cl)sc(C)c1C	97	94	54	-21
O=C1NC(=Nc2ccccc2)/C(=C/c2cccs2)S1	92	106	3	1
Cn1c(O)c(N=O)c2ccccc21	104	96	16	-3
CC1CC(C)CN(S(=O)(=O)c2ccc(C(=O)NCCCn3ccnc3)cc2)C1 (configuration not stated)	nt	nt	-9	-2
CNC(=O)c1ccccc1-c1nc(-c2ccc(Cl)cc2)no1	100	101	-12	-38
NC(=O)CCN1CCCC1C(N)=O (configuration not stated)	111	111	-10	8
CCc1cc(C(=O)O)on1	104	104	-3	-32
CCn1c(C)cc(C(=O)O)c1C	99	95	4	5
CC1=CC(C)(C)N(C(=O)CN2C(=O)c3ccccc3C2=O)c2ccccc21	102	103	-5	-7
CSc1nnnn1-c1cccc2ccccc12	100	102	-4	6
O=C(CCNC(=O)c1ccccc1Cl)NC1=NCCS1	106	110	-4	6
NC(=O)COC(=O)Cc1c(Cl)cccc1Cl	99	100	3	nt
CCC(=O)Nc1ccc(C(=O)COc2ncnc3ccccc23)cc1	101	109	11	11
Cc1nn(-c2ccccc2)c2nc(-c3ccccc3)ccc12	103	118	-73	-14

Some of these compounds in order of heavy-atom count, smallest number first.
Compound	Polio RdRp inh	Polio RdRp inh intensity	MbtI inh	MenB inh
CSc1nnnn1-c1cccc2ccccc12	100	102	-4	6
O=C1NC(=Nc2ccccc2)/C(=C/c2cccs2)S1	92	106	3	1
O=S(=O)(Cc1ccccc1)NC(c1ccccc1)c1nnc(-c2ccccc2)o1 (configuration not stated)	100	102	-24	-12

Later entries.
Compound	Polio RdRp inh	Polio RdRp inh intensity	MbtI inh	MenB inh
CC(C)CCNc1nnnc2c1sc1nc(N3CCOCC3)c3c(c12)CCCC3	102	103	2	2
Cc1nc2ccc(N=Cc3ccc(Br)cc3)cc2s1	105	104	-1	-12
CC1CCCC(C)N1C(=O)CCC(=O)O (configuration not stated)	98	94	nt	-3
C=CCN1C(=O)NC(=O)C(CCc2ccccn2)(CCc2ccccn2)C1=O	104	101	-2	-41
COc1ccc(C)cc1NC(=O)NC1CCCCC1C (configuration not stated)	103	100	-8	-13
Cc1cc(C(=O)COc2ncnc3sccc23)c(C)n1C	103	108	-9	2
CC(CCc1ccccc1)NCc1ccco1 (configuration not stated)	101	104	nt	-7
Cc1n[nH]c(=O)c(C#N)c1C	nt	nt	57	-12
COc1ccc2c(C)c(CC(=O)O)c(=O)oc2c1	100	102	96	-17
CC(C)(C)c1csc(-c2ccc(-c3ccccn3)s2)n1	107	104	109	-37
COc1cc(SC)ccc1C(=O)Nc1cccc(-c2nncn2C)c1	102	104	10	-3
O=C(NCc1ccccn1)OCC(F)(F)F	100	96	4	11
CCOC(=O)Cc1c(C)[nH]c(C(=O)OCC)c1CC(=O)OCC	107	105	-9	-1
CCSc1nnc(C2CCCN(S(C)(=O)=O)C2)n1C(C)C (configuration not stated)	105	103	21	-30
Cc1cc(C(=O)N(C)CC(=O)Nc2ccccc2C(F)(F)F)c(C)o1	105	106	14	-11
c1ccc2c(c1)[nH]c1cncnc12	101	96	118	2
Cc1cc(C)n(CCCNC(=O)c2ccccc2CSc2ncn[nH]2)n1	98	105	11	1
Cn1cccc1C(=O)OCc1cc(=O)n2cc(Br)ccc2n1	98	108	-12	9
Cc1nnc(Sc2cc(C(=O)NCCCN3CC(C)CC(C)C3)c3ccccc3n2)s1 (configuration not stated)	97	92	2	-22
COc1ccc(-n2nnnc2-c2ccccc2)cc1	100	100	4	-7

Other results:
Compound	Polio RdRp inh	Polio RdRp inh intensity	MbtI inh	MenB inh
CCOC(=O)Oc1c(OC)cc(C(=O)OC2CC3CN4CCc5c([nH]c6cc(OC)ccc56)C4CC3C(C(=O)OC)C2OC)cc1OC (configuration not stated)	102	110	-9	0
CC(C)n1nccc1NC(=O)COC(=O)c1ccc(NC(N)=O)cc1	nt	nt	14	1
CN(C(=S)NCc1ccccc1)c1ccc(O)cc1	93	92	46	8
CC1(C)ONC(=O)N(c2ccccc2)C1=O	93	89	-2	6
O=c1cc(CSc2nnc(CN3CCCCC3)n2Cc2ccccc2)nc2sc3ccccc3n12	101	110	-7	0
N#Cc1c(SCC(=O)c2ccc3c(c2)OCO3)sc2c(=O)[nH]c(=O)[nH]c12	106	107	3	5
CC1(C)c2ccccc2N2CC(=O)NC21/C=C/c1ccc(N2CCOCC2)cc1 (configuration not stated)	103	102	-85	-9
O=C(OCC(=O)N1c2ccccc2Sc2ccccc21)c1ccco1	100	101	nt	2
Cc1nn(CC(=O)NC2C3CC4CC(C3)CC2C4)c(=O)c(C#N)c1C (configuration not stated)	99	103	20	-10
COC(=O)CCC(=O)Nc1ccc2oc3c(c2c1)CCCC3	107	100	-8	-70
O=C1c2ccccc2C(=O)N1CC(=O)n1nnc2ccccc21	101	100	-9	0
Cc1ccc(NC(=S)NN(C)C)cc1C	100	103	0	6
O=C(Nc1ccc(N2CCCCC2)cc1)c1cccs1	96	93	35	-2
O=C(COCc1cc(-c2ccc(F)cc2)on1)NCCN1CCCC1	103	106	2	-6
O=C(NCCc1c[nH]c2ccccc12)c1ccc(Cl)c(S(=O)(=O)N2CCCC2)c1	101	103	-6	nt
COc1ccc(CCNC2CC(=O)N(Cc3ccccc3)C2=O)cc1OC (configuration not stated)	99	100	5	-15
Cc1nnc(SC2CCN(S(=O)(=O)c3ccc4c(c3)OCCO4)CC2)s1	104	102	-11	-2
COc1ccc(NC(=S)c2nc(N3CCCCC3)sc2N)cc1	103	105	29	-94
N#CCn1c(=O)n(C2CCCCC2)c(=O)c2ccccc21	107	109	1	-67
CCCC12CN3CC(C)(CN(C1)C31CCN(Cc3ccccc3)CC1)C2=O	102	102	-17	14
